PrP 5UTR inh – inhibition of PrP 5' UTR reporter expression | 340,000 compounds, 0.35% hits | cell-based PrP 5' UTR mRNA reporter, plate reader | AID 488862 | inhibition, % (no concentration beside the values);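 active = every replicate at 50% or more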;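 also: 0 = median of the neutral control wells; tested in H4 reporter cells; numbers are from one replicate; inactives centre near -14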
Sa ugtP lethal – kills S. aureus RN4220 lacking UgtP; S. aureus RN4220 ugtP deletion, OD600 growth, 16 h; some inactives read as strong as hits; growth inhibition, % (test concentration not listed); 330,000 compounds, 0.54% hits; AID 1259309;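 active = z-score under -3 and OD600 up to 0.15 on both plates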;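 also: plate controls were untreated wells for no effect and antibiotic for full effect; wells of about 80 µL received 100 nL stock; the first replicate is given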
Mtb hypoxia rep – inhibitors of hypoxia-regulated fluorescent reporter in Mycobacterium tuberculosis | 300,000 compounds, 0.1% hits | M. tuberculosis hypoxia-regulated fluorescent reporter, fluorescence | fluorescence inhibition, % (test concentration not listed);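 active = 35 to 45% if threefold the growth effect, above 45% if 1.5-fold the growth effect; inactive = the rest, general growth blockers included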;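 also: wells of about 50 µL received 100 nL stock; 0% = vehicle wells and 100% = reference inhibitor wells; whole bacteria with a GFP reporter of the hypoxia response; strong numbers were not always called active; many hits fall short of the cut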
BJeLR lethal – BJeLR cell viability loss. inhibition, % (concentration not given with the values). AID 1554. BJeLR (HRASV12) viability, CellTiter-Glo ATP luminescence, 48 h; reference of the scale not given here. 300,000 compounds, 0.17% hits;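 active = replicate mean above 50%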;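 also: 50 nL library stock added to about 25 µL; numbers are from one replicate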
Bead autofluor – compound fluorescence in toxin protease inhibitor counterscreen | compound autofluorescence counterscreen, microsphere flow cytometry; active compounds read high | fluorescence intensity (test concentration not listed) | 360,000 compounds, 3.1% hits;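 active = at least 3 SD above the mean of all compounds, about 16000 in these data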;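 also: 100 nL of 1 mM stock went into each well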
RN4220 kill – kills Staphylococcus aureus RN4220; S. aureus RN4220 growth, OD600, 16 h; inhibition, % (no concentration beside the values); 330,000 compounds, 0.33% hits;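 active = z-score of -3 or lower and OD600 up to 0.18 on both plates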;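 also: plate controls were untreated cells for no effect and reference antibiotic for full effect; stock transfer was 100 nL into about 80 µL; one replicate is shown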
Mtb hypoxia rep growth – also measured in Mtb hypoxia rep; calls as there; growth inhibition, %; measured here: M. tuberculosis growth (absorbance);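 0% = vehicle and 100% = reference antibiotic; read after six days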
* = called active by the depositor; . = no result given.

SMILES,PrP 5UTR inh,Sa ugtP lethal,Mtb hypoxia rep,Mtb hypoxia rep growth,BJeLR lethal,Bead autofluor,RN4220 kill
CC(=O)Nc1cccc(NC(=O)CSc2nnnn2Cc2ccccc2)c1,-14,3,.,.,3,4645,8.5
Cc1c(C=O)c2ccccn2c1C(=O)c1ccc(Cl)c([N+](=O)[O-])c1,4,7,11,1,1,4414,9.4
CC(=O)OCC(=O)C1(O)CCC2C3CCC4=CC(=O)CCC4(C)C3(F)C(O)CC21C (stereo not drawn),-4,8,9,7,.,2923,4.2
CCS(=O)(=O)n1nc(-c2ccc(C)cc2)nc1N,-7,9,.,.,0,3708,1.1
COC(=O)c1[nH]c2ccccc2c1NC(=O)C(C)N1CCOCC1 (stereo not drawn),-14,2,5,9,3,3338,6.2
Cn1cc(CN(CCO)Cc2cccs2)c(-c2ccccc2F)n1,1,5,18,6,-2,3294,0.7
Cc1ccc(C=NNc2nc(C)cc(C)n2)cc1,.,2,6,-3,.,.,2.2
CN(C)CCNC(=O)c1ccc(CS(=O)(=O)c2ccc(Br)cc2)o1,-8,-4,.,.,-7,4671,0.2
CCOC(=O)c1nn(-c2ccc3c(c2)CCN3C(C)=O)cc1O,-33,3,3,7,16,10335,5.6
O=C(c1cc(C2CC2)on1)N1CCN(c2ccccc2)CC1,-14,3,21,26,-12,5646,-2.4
CCOc1ccc(-n2nnc3c(=O)n(CC(=O)Nc4cc(C)on4)cnc32)cc1,-18,6,13,-3,4,4226,0.5
CC1CC(C)CN(S(=O)(=O)c2ccc(Cl)cc2)C1 (stereo not drawn),-122,-4,3,8,3,4054,0.3
O=[N+]([O-])c1cccc(C=NNC2=NS(=O)(=O)c3ccccc32)c1,.,1,10,4,.,.,3.6
COc1ccc(NC(=O)COc2ncnc3ccccc23)cc1S(=O)(=O)N1CCOCC1,-8,12,-2,-1,-11,3096,5.0
C=CCOc1ccc(CN(C)Cc2nc3cc(C(F)(F)F)ccc3c(=O)[nH]2)cc1,-19,-1,-1,1,3,4411,-3.0
Cn1c(=O)c(=O)n(C)c2cc(S(=O)(=O)N3CCC(N4CCCCC4)CC3)ccc21,-3,-4,17,3,-4,9247,1.5
CCNc1nn2ccccc2c1/C=C(\C#N)C(=O)OCC,4,1,10,12,-3,4154,6.8
COC(=O)C1=C(c2ccc(OC)c(OC)c2)CC2CCC1N2C(=O)N1CCOCC1 (stereo not drawn),.,-4,3,11,.,.,1.5
O=C(c1cc([N+](=O)[O-])ccc1N1CCCCC1)N1CCCC1,-8,0,14,4,-1,2017,0.8
CC(C)Oc1cccc(C(=O)C2CCCN(C(=O)c3cc(C4CC4)[nH]n3)C2)c1 (stereo not drawn),-19,2,7,0,6,5431,0.8
O=C(CN1C(=O)NC2(CCCCCCC2)C1=O)Nc1ccc(Cl)cc1,-9,-12,8,1,.,4158,0.4
O=C(O)c1ccc(Cn2cc(Cl)cn2)cc1,-8,-2,.,.,7,3885,1.0
O=C1CSC(c2cccc([N+](=O)[O-])c2)N1C1CC2CCC1C2 (stereo not drawn),-11,6,1,11,-4,.,1.5
COc1ccc(S(=O)(=O)NCCOc2cccc3cccnc23)cc1OC,-14,11,2,-2,-4,2316,5.9
Cn1c(/C(C#N)=C(\O)c2ccc([N+](=O)[O-])s2)nc2ccccc21,-35,5,0,-5,-1,4151,7.0
O=C(COC(=O)/C=C/c1cccc(Br)c1)NCc1cccs1,-17,13,7,1,.,2873,7.1
COc1ccc2[nH]c(C(=O)N3CCC(Cc4ccccc4)CC3)cc2c1,-6,-7,15,-1,1,4086,8.2
CCOc1ccc(-c2n[nH]c(C(=O)NN)c2C)cc1,-24,8,3,3,8,2576,-1.4
CC(C)(C)c1ccc(OCC(=O)NN=Cc2ccc(N3CCOCC3)cc2)cc1,.,-9,1,12,.,.,8.0
O=C(Nc1ccccc1C(=O)N1CCCCC1)c1ccco1,-5,5,1,3,2,4645,2.5

Later entries:
SMILES,PrP 5UTR inh,Sa ugtP lethal,Mtb hypoxia rep,Mtb hypoxia rep growth,BJeLR lethal,Bead autofluor,RN4220 kill
Cc1nc(N2CCN(Cc3ccccc3)CC2)nc2c1CCC2,-9,6,9,8,-5,2232,5.0
Cc1nc(Nc2ccc(Cl)cc2)c2nnn(Cc3ccccc3)c2n1,-18,0,-3,2,-3,4150,-6.3
COc1ccc2c(c1)[nH]c1c(=O)n(Cc3ccccn3)cnc12,-23,-13,2,0,-2,3297,-14
COc1ccc([N+](=O)[O-])cc1NC(=O)CSc1ccccc1,3,-1,.,.,-4,4100,-1.6
CCC(=O)Oc1ccc(C(=O)Nc2cccc(C(=O)NCC(C)C)c2)cc1,-15,-3,4,10,5,2673,-1.4
C#CCSc1nnnn1-c1cccc(Cl)c1,-19,3,13,5,-5,5554,2.2
COc1ccc(N2C(=O)/C(=C/c3cccs3)C(=O)NC2=S)cc1,-15,-6,5,4,0,5824,-2.4
COc1ccc(Cl)cc1Nc1nnc(-c2ccncc2)s1,-33,-9,1,-8,4,2762,1.1
Fc1ccc(CNC(=S)Nc2cccc(C(F)(F)F)c2)cc1,-26,-29,11,1,1,1999,-9.1
CC(C)(C)c1ccc(C(=O)N2CCC(C(=O)NC3CC3)CC2)cc1,-55,8,2,-1,-3,2982,3.0
FC(F)(F)c1ccccc1NC(=S)N1CCN(c2ccccn2)CC1,-33,0,-2,6,1,4225,5.3
COc1ccc(-c2nnc(SCC(=O)NN=Cc3ccccc3C(=O)O)n2-c2ccc(Cl)cc2)cc1,.,10,0,-2,.,.,2.8
O=C(NCC1CCCO1)C(=O)NN=Cc1cc(Cl)ccc1O (stereo not drawn),.,-3,3,-3,.,.,0.1
O=C(c1ccccc1)N(Cc1cccnc1)C1(C(=O)Nc2ccccc2)CCCCC1,-12,5,4,-1,2,2475,1.8
O=C(Nc1cccc(C(=O)Nc2ccccc2C(=O)O)c1)c1cccc(Cl)c1,-9,-5,-2,15,-6,5387,6.9
O=S(=O)(N=C(Nc1cc(N2CCOCC2)ncn1)c1ccc(F)cc1)c1ccccc1,.,-4,14,6,.,.,2.5
COc1ccc(-c2csc(N3CCN(S(=O)(=O)c4ccc5c(c4)NC(=O)CO5)CC3)n2)cc1,-21,-10,3,1,6,5285,-4.6
CCOc1cccc(C(=O)NCc2ccccc2)c1,9,-1,25,37,-5,2492,-0.2
CC(C)CCNC(=O)CN(C(=O)Cn1nnc(-c2ccc(F)cc2)n1)C1CCCC1,-27,12,8,8,-3,7593,2.4
CCCCOC(=O)c1cc(Cl)c(O)c(OC)c1,-8,.,.,.,11,3847,.
O=C(NCCNC(=O)c1ccco1)c1ccc(F)cc1,-16,7,-2,-16,2,4276,3.3
Cc1c(O)ccc(C(Cc2ccc3ccccc3n2)=NO)c1O,.,-6,1,14,.,.,-2.6
CC(=NNC(=O)Cc1ccccc1[N+](=O)[O-])c1cccnc1,.,4,12,14,.,.,-0.1
Cc1nccn1-c1ncnc2sc3c(c12)CCCC3,-24,4,14,2,-3,8345,1.5
O=C1c2ccccc2C(=O)N1CC1c2ccccc2CCN1S(=O)(=O)c1ccccc1 (stereo not drawn),-14,10,.,.,1,4806,1.4
Cc1cccn2cc(CSc3ccccc3N)nc12,-71,1,7,11,0,9915,7.0
COc1ccc(C2C(C#N)=C(N=CN3CCOCC3)OC3=C2C(=O)CC(C)(C)C3)cc1OC (stereo not drawn),.,4,12,17,.,.,1.0
Cc1ccc2cc(C)c(N3CCN(c4ccccn4)CC3)nc2c1,-23,1,-5,-4,-10,23535*,19
O=C(Nc1ccccc1)Nc1sccc1-c1nc2ccccc2s1,12,-5,0,5,0,6397,-17
CC1CCCCN1CCCNC(=O)Cn1ncc2c([nH]c3ccccc32)c1=O (stereo not drawn),2,-3,0,-3,4,5622,-2.1

Part of the list above, with values under each structure:
Every second line gives: PrP 5UTR inh | Sa ugtP lethal | Mtb hypoxia rep | Mtb hypoxia rep growth | BJeLR lethal | Bead autofluor | RN4220 kill
> Cc1cccn2cc(CSc3ccccc3N)nc12
    -71 | 1 | 7 | 11 | 0 | 9915 | 7.0
> COc1ccc(C2C(C#N)=C(N=CN3CCOCC3)OC3=C2C(=O)CC(C)(C)C3)cc1OC (stereo not drawn)
    . | 4 | 12 | 17 | . | . | 1.0
> Cc1ccc2cc(C)c(N3CCN(c4ccccn4)CC3)nc2c1
    -23 | 1 | -5 | -4 | -10 | 23535* | 19
> O=C(Nc1ccccc1)Nc1sccc1-c1nc2ccccc2s1
    12 | -5 | 0 | 5 | 0 | 6397 | -17

Other entries.
SMILES,PrP 5UTR inh,Sa ugtP lethal,Mtb hypoxia rep,Mtb hypoxia rep growth,BJeLR lethal,Bead autofluor,RN4220 kill
COc1cc2c(cc1OC)CN(CC(=O)Nc1ccccc1C#N)CC2,-16,6,.,.,-17,4730,2.0
CC(C)CN(C(=O)COC(=O)CCc1c[nH]c2ccccc12)C1CCS(=O)(=O)C1 (stereo not drawn),-16,5,.,.,4,3277,4.8
O=C(NC1CCCCCC1)C1CCN(C(=O)c2ccc(Br)cc2)CC1,-18,9,5,10,-12,5294,0.0
COC(=O)C1=C(c2ccc(C(C)=O)cc2)CC2CCC1N2C(=O)NCCCOC(C)C (stereo not drawn),.,1,4,5,.,.,3.4
CC(C)N1CC=C2C(C#N)=C(N)C(C#N)(C#N)C(c3ccccc3)C2C1 (stereo not drawn),13,-3,14,6,0,3899,-1.7
Cn1c(N)c(C(=O)COC(=O)/C=C/c2ccccc2)c(=O)n(C)c1=O,-7,-1,4,8,.,3573,3.8
C=C(C)C1CC=C(C)/C(=N/NC(=O)COc2cccc(C)c2)C1 (stereo not drawn),-14,.,.,.,4,17668*,.
COc1ccc(C(C(=O)NC2CCCC2)N(C(=O)c2ccco2)c2ccc(OC)c(OC)c2)cc1 (stereo not drawn),-1,0,2,-3,1,.,-0.3
O=C(NC1CCC(O)CC1)c1cccnc1Sc1ccccc1Cl (stereo not drawn),-14,10,-3,-5,9,4201,5.2
CN(c1ccccc1)S(=O)(=O)c1ccc2c(c1)OCCO2,3,-4,6,3,.,.,5.4
Cc1[nH]c2ccccc2c1C=NNc1ccc([N+](=O)[O-])cc1S(=O)(=O)Nc1ccc(Cl)cc1,.,8,18,-10,.,.,1.5
CCc1c(C)c(C#N)c2nc3ccccc3n2c1Nc1c(C)n(C)n(-c2ccccc2)c1=O,-32,-4,-9,10,4,8111,2.6
CCN1CCN(C(=S)NC(=O)/C=C/c2cccs2)CC1,-28,9,13,7,-9,3123,1.1
COc1cc(C(=O)NCC(c2cccs2)N2CCc3ccccc32)cc(OC)c1OC (stereo not drawn),2,9,6,0,11,5705,-2.6
Cc1nn2cc(-c3ccc(Cl)cc3)cnc2c1Br,-42,9,8,4,-10,3767,7.3
CC(=O)c1c(C)nn(C(=O)c2cccs2)c1C,-15,-4,5,12,-13,4315,-13
Cc1ccc(/C=C/S(=O)(=O)NCCC(=O)NCc2ccccc2F)cc1,-31,4,7,6,.,3579,-0.7
Cc1noc(C)c1S(=O)(=O)N(C)C[C@H]1Oc2ccc(NS(=O)(=O)c3ccc(F)cc3)cc2C(=O)N([C@H](C)CO)C[C@@H]1C,-12,-3,-14,7,.,4001,0.7
C(=N\Nc1nc2ccccc2[nH]1)/c1cccc2nccnc12,-10,.,.,.,18,4098,.
NC(=O)c1cc([N+](=O)[O-])cc2c1C=Cc1ccccc1O2,-17,5,-2,6,-2,3987,5.2
CC(C)N(C)NC(=S)Nc1ccccc1,1,3,18,10,6,2446,5.3
Cc1c(Cl)ccc2c1NC(=O)[C@]21[C@@H]2C(=O)N(Cc3ccccc3)C(=O)[C@@H]2[C@@H]2CCCN21,-2,-7,.,.,.,4050,-6.4
Cc1cc(C)n(S(=O)(=O)c2cc(Cl)ccc2Cl)n1,-12,7,7,-1,2,4564,-1.2
Cc1ccc(N2C(=O)c3ccc(C(=O)Nc4cccnc4)cc3C2=O)c(C)c1,-11,3,.,.,3,4563,-5.2
CCc1ccc(NC(=O)c2cnn(-c3ccccc3)c2C)cc1,-94,9,9,14,-12,2655,1.0
Cc1ccc(CNC(=O)CCNS(=O)(=O)c2cccs2)cc1,-15,2,-3,-7,8,8649,2.9
CC(C)c1ccc(NC(=O)/C(C#N)=C/c2ccncc2)cc1,-21,-7,18,9,3,6503,0.3
